Screens from PubChem BioAssay.
CDC25B-CDK2 inh – human CDC25B-CDK2/CyclinA binding inhibition; actives 0.72% (n = 94,000); P30305+P24941; AID 1259370; z-score (test concentration not listed); HTRF CDC25B-CDK2/CyclinA binding, anti-His/anti-Flag; active compounds read high;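 further: score is relative to mean and SD of negative controls; strong numbers were not always called active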
TAR Tat displ – HIV-1 TAR-Tat binding disruption; actives 0.6% (n = 100,000); HIV-1 TAR RNA, Tat peptide displacement FRET; active compounds read high; z-score (no concentration beside the values); AID 1259389;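 further: score is relative to mean and SD of negative controls; some compounds called inactive have numbers as strong as hits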
The depositor's hits bear a star; / = not tested or not shown.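 How the source made its calls: active means z-score from 3 up in half or more of its runs; inactive means the rest.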

SMILES | CDC25B-CDK2 inh | TAR Tat displ
CCOC(=O)c1[nH]c(C)c(S(=O)(=O)N2CCN(C(=O)c3ccco3)CC2)c1C | / | 0.55
CC1CN2C(=O)Cc3c(S(=O)(=O)Nc4cccc(Cl)c4)ccc(c32)S1 (stereo not drawn) | / | 1.7
CCCN1CCN(C(=O)c2noc3c2CSc2ccccc2-3)CC1 | -1.3 | -0.07
O=C(Nc1cccnc1)c1ccc2c(c1)OCO2 | -0.78 | 0.41
Cc1nn(-c2ccccc2)c(-n2cccc2)c1CNC(=O)Nc1ccc(F)c(Cl)c1 | / | 3.9
O=C(O)CN1C(=O)c2ccc(Br)cc2C1=O | 1.2 | /
COc1ccc(NS(=O)(=O)c2ccc3c(c2)NC(=O)C(C)CS3)cc1Cl (stereo not drawn) | / | 1.1
O=C(NCCCN1CCCC1)C1c2ccccc2C(=O)N(C2CCCC2)C1c1cccs1 (stereo not drawn) | / | 0.86
CCOc1ccc(-n2c(SCc3nc(-c4ccc(C)cc4)no3)nnc2-c2ccncc2)cc1 | 1.5 | 1.4
CCN1CCN(C(=O)CCc2c(C)nn3cnnc3c2C)CC1 | / | -0.36
CCOC(=O)C1=C(C)NC2=C(C(=O)C(C(=O)OC)C(C)C2)C1c1ccc(F)cc1 (stereo not drawn) | -0.67 | 1.1
CCCC(C(=O)NC1CCCC1)N1Cc2ccccc2C1=O (stereo not drawn) | / | 2.1
CCC(C(=O)NCCCN1CCCC1=O)N1C(=O)CCn2nc(C)cc21 (stereo not drawn) | / | 2.5
CCCC(O)c1nc2ccccc2n1CCCOc1ccccc1Cl (stereo not drawn) | -2.4 | 2
Cc1nn(C)c2ncc3c(=O)n(Cc4ccc(Cl)cc4)n(C)c3c12 | -1.8 | /
O=C(Cc1cccs1)N(c1ccc(Cl)cc1)C1C=CS(=O)(=O)C1 (stereo not drawn) | -1.1 | -1.2
COc1ccc2cc(C(=O)O)c(=O)[nH]c2c1 | / | 1.9
CN(C)CCNc1oc(/C=C/c2cccs2)nc1C#N | -1.4 | -0.64
O=C(CN1C(=O)c2ccccc2S1(=O)=O)N(Cc1ccccc1)Cc1ccccc1 | 0.15 | /
CCC1=C/C(=C/N(C)c2ccccc2)C(=O)S1 | -1.3 | 0.33
CS/C(=N/S(=O)(=O)c1ccccc1)NNc1cc(C(F)(F)F)cc(C)n1 | -1.6 | /
O=C(Cc1cc(F)cc(F)c1)Nc1ccccn1 | -0.6 | /
Cc1[nH]nc(-c2ccc(S(=O)(=O)NCc3ccco3)s2)c1C | / | 0.02
Cn1ncc2c(NCCCc3ccccc3)ncnc21 | / | 2.1
O=C(Nc1ccc(Cl)cc1)N1CCN(c2ccccn2)CC1 | -0.54 | 1
Cc1cn2c(=O)cc(COC(=O)COc3ccccc3F)nc2s1 | / | -0.86
Clc1ccc(OCc2nn3c(-c4ccncc4)nnc3s2)cc1 | -2 | 0.52
CNC1(C)C2CCC(C2)C1(C)C (stereo not drawn) | -1.5 | -2.3
O=C(COC(=O)c1ccc2c(c1)OCCO2)c1ccc(-c2ccccc2)cc1 | -15 | /
Fc1ccc(CN2CCN(Cc3ccc4ccccc4c3)CC2)cc1 | -2.2 | -0.41
O=C(Sc1cccs1)C1COc2ccccc2O1 (stereo not drawn) | -0.99 | /
Cc1cc2n(n1)CCCN2C(=O)CCC(=O)NCc1cccs1 | / | 1.6
Cc1nnc(SCC(=O)n2c3c(c4ccccc42)CCCC3)s1 | -1.4 | -1.4
CCOC(=O)c1c(S(=O)(=O)N2CCc3ccccc3C2)c(C)n(C)c1C | / | 1.4
O=C(C1CCCN(c2nc3ccccc3n3cccc23)C1)N1CCN(c2ccc(F)cc2)CC1 (stereo not drawn) | / | 2.3
COc1ccc(NC(=O)CSc2ccc(S(=O)(=O)C3CCCCC3)nn2)cc1Cl | -0.67 | -2.4
Cc1cc2c(cc1S(=O)(=O)NC1CCCc3ccccc31)OCCN2C (stereo not drawn) | / | 1.1
CCc1ccc(C2CC(=O)Nc3c2cnn3-c2nc3ccccc3s2)cc1 (stereo not drawn) | / | 3.2
CCc1ccc(S(=O)(=O)c2nnn(-c3ccc(F)cc3)c2N)cc1 | -2.6 | 1.5
CSc1ncc(C(=O)Nc2c(C)cc(C)cc2C)c(C(F)(F)F)n1 | / | 0.73
COc1ccc(N2C(=O)C3CCCN3C2c2ccc(F)cc2)cc1 (stereo not drawn) | -2.3 | 1.7
COc1ccc2nc(SCC(=O)c3c(C)[nH]c4ccccc34)nc(C)c2c1 | -3.5 | -0.72
CCCS(=O)(=O)N1CCN(c2c(C)n(-c3ccccc3)c(=O)n(C)c2=O)CC1 | / | 1.4
Cc1oc2ncnc(N3CCOCC3)c2c1C(=O)Nc1ccc(Br)cc1F | -0.89 | 0.11
O=C(NCC1CCCO1)C1CCCN1c1nnc(N2CCCC2=O)s1 (stereo not drawn) | -0.65 | 1.5
Cc1cc(=O)[nH]c(N2CCCC2)n1 | -1.1 | /
Cc1nnc(NC(=O)CSc2nc3ccccc3o2)s1 | 1.5 | 1.4
CCS(=O)(=O)c1nc(S(=O)(=O)c2ccc(Cl)cc2)c(NCCOC)s1 | -0.29 | -0.09
O=C1CN(Cc2c(F)cccc2Cl)S(=O)(=O)c2ccccc2N1Cc1ccc(Cl)cc1 | / | 0.83
CCOC(=O)NC(C)C1CC2CCC1C2 (stereo not drawn) | 0.28 | 0.54
O=C(Oc1ccc2ccccc2c1C1SCCS1)c1cccs1 | 3.3 | /
O=C1c2ccccc2C(Nc2ccc3nc(-c4cccnc4)[nH]c3c2)N1Cc1ccco1 (stereo not drawn) | 2.3 | 1
Cc1ccc(S(=O)(=O)Nc2ccc3c(c2)N(S(=O)(=O)c2ccc(F)cc2)CCC3)c(C)c1 | / | 1.8
Cc1cc(C)c2c(n1)SCCN2C(=O)CCC(=O)NC1CCCC1 | / | -0.99
COc1ccc(N2C(=O)Nc3ccc(Br)cc3C2(O)C(=O)NCCN(C)C)c(OC)c1 (stereo not drawn) | 1.1 | /
O=C(CSc1nnc(-c2cccs2)n1C1CCCCC1)NC(=O)Nc1ccccc1 | -5.3 | /
Cc1ccc(-c2noc(-c3cccnc3NC3CCCCC3)n2)cc1 | -0.13 | 0.83
CCOc1ccc2nc(-n3nc(C)c4c3NC(=O)CC4c3cccs3)sc2c1 (stereo not drawn) | / | 1.5
CCOC(=O)c1ccc(N2C(=O)c3n[nH]c(C)c3C2c2ccc(Cl)cc2)cc1 (stereo not drawn) | / | 0.65
CC1(O)/C=C/C=C(\CO)C2CC(C)(C)C2(O)CC1 (stereo not drawn) | / | 3.5

Following part:
SMILES | CDC25B-CDK2 inh | TAR Tat displ
CCc1ccc(-c2csc(Nc3ccc(S(N)(=O)=O)cc3)n2)cc1 | -0.95 | 0.01
CCOC(=O)c1cc(-c2ccc(S(=O)(=O)NCCCc3ccco3)s2)on1 | / | 0.44
Cc1ccc(Nc2nc3ccccc3n3cnnc23)cc1C | -1.3 | 1.4
CSc1nc(NCCO)c(C#N)c(-c2ccc(C)cc2)n1 | -1.7 | -0.11
O=C([C@@H](Cc1ccccc1)N1Cc2ccccc2C1=O)N1CCN(c2ncccn2)CC1 | / | -1.1
O=C1c2ccccc2-c2nn(C(=O)C3CCN(S(=O)(=O)c4cccs4)CC3)c3cccc1c23 | -2.6 | /
COc1ccccc1NC(=O)Nc1nc2ccccc2s1 | -3.8 | 0.8
O=C(c1cn(CC(=O)N2CCc3ccccc32)c2ccccc12)C1CCCCC1 | -2 | 1.2
O=C(NC1CCCCC1)C1CCN(c2ncnc3c2nc2n3CCCCC2)CC1 | / | 0.29
Cc1nn(CCCC(=O)NCCCOC(C)C)c(=O)c2cc3sccc3n12 | -0.58 | 0.48
COc1cc(Cl)c(NC(=O)c2cc(C3CC3)[nH]n2)c(OC)c1 | / | -0.59
CC1(C)CC(O)(C#CC#CC2(O)CC(C)(C)NC(C)(C)C2)CC(C)(C)N1 | -2.1 | /
CC(C)CCn1c(=O)c2sccc2n2c(CCCC(=O)O)nnc12 | -2 | 0.89
O=C(O)C(CS(=O)(=O)Cc1ccccc1)N1Cc2ccccc2C1=O (stereo not drawn) | -0.91 | 1
COc1cc(C2C(C(=O)c3cc4ccccc4o3)=C(O)C(=O)N2CCN(C)C)ccc1O (stereo not drawn) | -0.69 | 1.3

Some of the entries so far, field by field.
> Cc1oc2ncnc(N3CCOCC3)c2c1C(=O)Nc1ccc(Br)cc1F
  CDC25B-CDK2 inh = -0.89
  TAR Tat displ = 0.11

> O=C(NCC1CCCO1)C1CCCN1c1nnc(N2CCCC2=O)s1 (stereo not drawn)
  CDC25B-CDK2 inh = -0.65
  TAR Tat displ = 1.5

Compound profiles, as listed above:
`COc1ccc2nc(SCC(=O)c3c(C)[nH]c4ccccc34)nc(C)c2c1` in the list: CDC25B-CDK2 inh = -3.5; TAR Tat displ = -0.72
`Cc1cc2n(n1)CCCN2C(=O)CCC(=O)NCc1cccs1` in the list: CDC25B-CDK2 inh = /; TAR Tat displ = 1.6
`CCc1ccc(S(=O)(=O)c2nnn(-c3ccc(F)cc3)c2N)cc1` in the list: CDC25B-CDK2 inh = -2.6; TAR Tat displ = 1.5

Continued.
SMILES | CDC25B-CDK2 inh | TAR Tat displ
CC1=C(C(=O)N(C)C2CCCCC2)C2(CCC(C)CC2)OC1=O (stereo not drawn) | -1.6 | 0.29
CCC(C(=O)N1CCOCC1)n1nc(C)n2c(cc3cc(C)ccc32)c1=O (stereo not drawn) | -0.88 | 1.3
CCOc1ccc(S(=O)(=O)n2cnc3cc([N+](=O)[O-])ccc32)c2ccccc12 | 0.8 | /
Cn1c(=O)c2c(ncn2CC(=O)Nc2nncs2)n(C)c1=O | -0.02 | 0.14
CCOc1ccc(N2C(=O)c3nccnc3C2=O)cc1 | 0.9 | 0.82
CCN1CCN(C(c2cccs2)C(C)NS(=O)(=O)c2ccc(F)cc2)CC1 (stereo not drawn) | -2.3 | /
CCc1n(CC)c2ccccc2[n+]1CC(O)COc1ccccc1OC (stereo not drawn) | -0.27 | 0.5
Cc1ccnc2nc(NC(=O)C3CC3)nn12 | -0.77 | 0.16
Cc1ccc2oc(C(=O)OCC(C)(C)CN(C)C)cc2c1 | 2.2 | -0.11
O=C(C1CCN(c2nnc(N3CCCC3=O)s2)CC1)N1CCOCC1 | -1.8 | -0.6
CN(C(=O)Nc1cn(C)c(=O)c2ccccc12)c1ccccc1 | / | -1.5
CC1=C(C(=O)Nc2ccc(C(=O)NC(C)c3ccc4c(c3)OCCO4)cc2)SCCO1 (stereo not drawn) | / | -0.37
CSc1ncc(Cl)c(C(=O)N(Cc2ccccc2Cl)C2CCS(=O)(=O)C2)n1 (stereo not drawn) | -2.6 | 2.2
S=c1[nH]nc(-c2ccco2)o1 | -2.2 | /
CC(C)(CC(=O)OCC(=O)c1ccccc1)CC1=NS(=O)(=O)c2ccccc2N1 | / | 0.1
CC(=O)N1c2c(cc(Br)cc2S(=O)(=O)N2CCN(c3ccccc3)CC2)CC1C (stereo not drawn) | -0.01 | /
Cc1ccc(NS(=O)(=O)c2cc(-c3cnc(C)o3)ccc2C)c(Cl)c1 | / | 0.92
COc1ccc2cc3c(nc2c1)N(S(=O)(=O)c1ccc(C)cc1)CC3 | -1.6 | 0.15
CCC(O)(c1ccc(C)cc1)C(CN1CCOCC1)c1ccccc1 (stereo not drawn) | -0.71 | -0.14
CC(C)Oc1nsnc1N1CCOCC1 | 0.1 | /
CCN(CC)C(=O)CCCN1C(=O)c2cccnc2Sc2ccccc21 | / | 0.08
O=C(NCc1ccc(F)cc1)c1ccc2c(c1)sc1nc(-c3ccc(F)cc3)cn12 | / | 0.1
CC(Cc1ccco1)NC(=O)Cn1cnc(S(=O)(=O)N2CCCC2)c1 (stereo not drawn) | / | -0.41
COC(=O)Cn1nc(C)n2ccnc2c1=O | 1.8 | 0.54
O=C(CCS(=O)(=O)c1cc2c3c(c1)CCN3C(=O)CC2)Nc1ccc(-c2ccno2)cc1 | / | 1.2
Cc1noc(/C=C/c2ccco2)c1S(=O)(=O)N1CCC(C(=O)N(C(C)C)C2CCCCC2)CC1 | -1 | -4.6
COc1cccc(N2CCN(S(=O)(=O)c3ccc4c(c3)CC(=O)N4)CC2)c1 | -1.1 | 1.8
CCc1cc(=O)n2[nH]c(NCc3cc(F)cc(F)c3)nc2n1 | -1.3 | -0.69
c1cncc(CNc2ncnc3sc4c(c23)CCCC4)c1 | / | 1.5
Cc1ccc(CN2C(=O)CSC2c2ccc(F)cc2)cc1 (stereo not drawn) | 1.1 | -1.6
Cc1ccc(O)c([C@H](CCN(C(C)C)C(C)C)c2ccccc2)c1 | / | 0.26
CCN(CC)c1nnc(-n2cccc2CN2CCN(c3ccc(F)cc3)CC2)s1 | / | 1.1
CCc1cc2c(=O)oc(-c3ccc(Br)cc3)nc2s1 | -1.2 | /
O=C(CSc1c(F)c(F)c(C(=O)O)c(F)c1F)Nc1cccc(C(F)(F)F)c1 | 0.01 | /
O=C(O)Cc1nnc(-c2ccc3c(c2)OCO3)o1 | -2.4 | 1.6
CN1C(=O)CSc2ccc(NC(=O)NCc3cccnc3)cc21 | 4.8* | 0.5
O=c1c2ccccc2c2ccccc2c(=O)n1Cc1ccco1 | -0.53 | /
Cc1nc(Nc2ccc(Cl)cc2Cl)c(C#N)c(N(C)C)n1 | 0.08 | /

Looked up one by one from the entries so far, three records:
SMILES | CDC25B-CDK2 inh | TAR Tat displ
Cc1nc(Nc2ccc(Cl)cc2Cl)c(C#N)c(N(C)C)n1 | 0.08 | /
CCc1cc2c(=O)oc(-c3ccc(Br)cc3)nc2s1 | -1.2 | /
CN1C(=O)CSc2ccc(NC(=O)NCc3cccnc3)cc21 | 4.8* | 0.5
